2A firefly: FMDV 2A StopGo reporter, firefly signal. 120,000 compounds, 0.23% hits. HEK cells with a luciferase reporter of 2A StopGo recoding. Potency, µM (highest dose often 57.5 µM), for the others: at the highest dose signal change, negative = less light; active = well fitted falling curve with a large enough effect; inconclusive = small, poorly fitted or top-dose-only effect; inactive = no such curve, though single readings can be large or run the other way; note: nearly all actives have a fitted effect of over 60% in size; overnight with compound
2A Renilla: lowers the Renilla signal of an FMDV 2A StopGo reporter | HEK cells with a luciferase reporter of 2A StopGo recoding | Potency, µM (titrated, usually from 57.5 µM), for the others: at the top dose signal change, negative = less light | 120,000 compounds, 0.32% hits | AID 1745857; active means well fitted falling curve with a large enough effect; inconclusive means small, poorly fitted or top-dose-only effect; inactive means no such curve, though single readings can be large or run the other way; note: nearly all actives have a fitted effect of over 55% in size; overnight with compound
* marks the source's active call; other numbers are inactive results; ? = inconclusive; [ ] = dose if it differs, or a comment. % is set by controls: 0 for no effect and ±100 for the full control effect; potency is the fitted concentration of half-maximal effect.

nr	Structure	2A firefly	2A Renilla
1	CCc1ccc(-c2nc(C(=O)N3CCN(C(C#N)c4ccc(F)cc4)CC3)cs2)cc1 (stereo unspecified)	32%[activator]	-1%
2	Cc1ccc(C(=O)NC(C)C2CC3CCC2C3)s1 (stereo unspecified)	22%	8%
3	Cc1ccc(NC(=O)CN2C(=O)CCc3ccccc32)cc1C	0%	-7%
4	Cc1ccccc1NC(=O)Cn1nnc(C(=O)NCCc2ccccc2)c1N	-11%	1%
5	COc1cccc(CC(=O)N2CCN(c3nc(-c4ccc(Cl)cc4)no3)CC2)c1	?	?
6	COCCCNC(=O)c1ccc2c(c1)nc(C)n2-c1cccc(C)c1	21%	23%
7	O=C(NCC(=O)N1CCN(S(=O)(=O)c2c(Cl)cccc2Cl)CC1)NCc1ccccc1	6%	10%
8	O=C(Nc1ccccc1)c1c2c(nc3ccccc13)CCC2	11%	9%
9	O=C(O)C(c1c[nH]c2cc(OCc3ccccc3)ccc12)N1CCN(Cc2cccnc2)CC1 (stereo unspecified)	-3%	-3%
10	Cc1ccc2oc(C(=O)Nc3onc4c3CC(C)CC4)cc(=O)c2c1 (stereo unspecified)	63%[activator]	3%
11	CCOCCn1ccc2c(OCC(=O)Nc3ccc(C(N)=O)cc3)cccc2c1=O	-2%	0%
12	CCSc1nnc([C@@H](NC(=O)OC(C)(C)C)C(C)CC)o1 (stereo partly specified)	-10%	6%
13	COc1ccc(NC(=O)c2cc(C3CC3)nc3c2c(C)nn3-c2ccccc2)c(OC)c1	-10%	-13%
14	Cn1c(=O)n(CC(=O)N2CCCCCC2)c(=O)c2cc(S(=O)(=O)N3CCCCC3)ccc21	-5%	-1%
15	O=C(O)C(c1c[nH]c2cc(F)ccc12)N1CCN(CCOc2ccc(Cl)cc2)CC1 (stereo unspecified)	-12%	-13%
16	COC(=O)Nc1ccc(CNCc2ccccn2)cc1	0%	15%
17	CC(Sc1ccc(Cl)cc1)C(=O)Nc1ccc(C(C)C)cc1 (stereo unspecified)	22%	-8%
18	CCOC(=O)c1cccc(NC(=O)CCC2CCCCC2)c1	35%	29%
19	CC(OC(=O)Cc1n[nH]c(=O)c2ccccc12)C(=O)NC(N)=O (stereo unspecified)	5%	-8%
20	CCc1ccccc1NC(=O)Cn1nc(C)c2nn(-c3ccc(Cl)cc3)c(C)c2c1=O	-11%	-11%
21	CC(C)CC(C)N(C)CC(=O)NC(C)(C#N)C1CC1 (stereo unspecified)	-6%	-13%
22	CC1C(=O)N(Cc2ncc(-c3ccccc3)o2)C(=O)N1c1ccccc1 (stereo unspecified)	36%[activator]	2%
23	CCc1ccc(S(=O)(=O)c2nnn3c2nc(NCCNC(C)=O)c2cc(Cl)ccc23)cc1	-14%	0%
24	CC(OC(=O)c1cccs1)C(=O)c1ccccc1 (stereo unspecified)	139%[activator]	-7%
25	CCN(c1ccc(NC(=O)c2n[nH]c(=O)c3ccccc23)cc1)C(C)C	206%[activator]	20%
26	CC(CNC(=O)CCCn1c(=O)c2cccn2c2ccccc21)c1ccccc1 (stereo unspecified)	?	?
27	CCOc1ccc(NC(=O)Cn2c(=O)n(-c3cccc(Cl)c3)c(=O)c3c2c2cc(C)ccc2n3C)cc1	-9%	3%
28	CN(C(=O)C1=CC(c2ccc3c(c2)OCO3)=NS(=O)(=O)N1C)c1ccccc1	-7%	52%[activator]
29	Cc1cc(C)n(CCc2nc3c4ccccc4nc(N4CCN(c5ccccc5)CC4)n3n2)n1	-21%	-19%
30	COc1ccc(Cl)cc1NS(=O)(=O)c1cc(-c2cc(C)no2)ccc1C	9%	233%[activator]

Whole records, quoted from the list. Order of screens: 2A firefly, 2A Renilla
CCc1ccccc1NC(=O)Cn1nc(C)c2nn(-c3ccc(Cl)cc3)c(C)c2c1=O in the list: -11%, -11%
O=C(Nc1ccccc1)c1c2c(nc3ccccc13)CCC2 in the list: 11%, 9%

Following part
nr	Structure	2A firefly	2A Renilla
31	Cc1oc(-c2ccccc2)nc1C(=O)NC(C)CN1CCOCC1 (stereo unspecified)	-10%	-11%
32	CCc1ccccc1NC(=O)Nc1nnc(N(CC)c2ccccc2)s1	-1%	3%
33	Cc1cccc(N2C(=O)CSC23C(=O)N(CC(=O)Nc2cccc(Cl)c2)c2ccccc23)c1 (stereo unspecified)	-8%	-3%
34	CC[C@@H](C)[C@H](NC(=O)COc1ccc2c(=O)c(-c3ccc(Cl)cc3)c(C)oc2c1)C(=O)O	9%	1%
35	N#Cc1ccc(NC(=O)CN2CCc3sccc3C2c2cccs2)cc1Cl (stereo unspecified)	12%	290%[activator]
36	COc1ccc(S(=O)(=O)N2CCN(Cc3nc4ccc(C)cc4o3)CC2)cc1OC	?	24%
37	CCC1CCC/C1=N\NC(=O)c1ccoc1C (stereo unspecified)	256%[activator]	3%
38	O=C(O)C/C(=C/c1ccc(Br)cc1)c1nc2ccccc2s1	41%[activator]	17%
39	COc1cccc(C(=O)Nc2ccc3oc(-c4cccnc4)nc3c2)c1	?	?
40	Cc1ccccc1NC(=O)COC(=O)c1ccc2nc(C)c(C)nc2c1	-8%	-10%
41	C=CCNc1ccc(C(F)(F)F)cn1	-2%	5%
42	Cc1cc2oc(C(=O)NCC(c3cccs3)N3CCCCCC3)cc(=O)c2cc1Cl (stereo unspecified)	-3%	-11%
43	CCc1ccc(NC(=O)c2cccc(N3CCCS3(=O)=O)c2)cc1	53%[activator]	?
44	O=C(CSc1ncccn1)c1ccc(F)cc1	74%[activator]	-2%
45	Cn1cc(B2OC(C)(C)C(C)(C)O2)cn1	0%	-2%[1.06 µM]
46	Cc1cc(C(F)(F)F)nn1-c1nc(-c2ccccc2)cc(C(F)(F)F)n1	14%	16%
47	CCOC(=O)N1CCC(NC(=O)c2cc3ccc(OC)cc3[nH]2)CC1	2%	-4%
48	O=C(COC(=O)c1ccsc1)c1ccc2c(c1)OCCCO2	35%[activator]	23%
49	CCC(=O)Oc1ccc(-c2nc3ccccc3c(=O)o2)cc1	9%	14%
50	CCOc1ccc(CNC(=O)Cn2nc(C)n3cccc3c2=O)cc1	8%	-18%
51	COc1ccc2cc(-c3nc(-c4cccc(OC)c4OC)no3)c(=O)oc2c1	-23%	-16%
52	CCOC(=O)c1noc2nc(C)n(CC(=O)NC(C)CC)c(=O)c12 (stereo unspecified)	47%[activator]	-19%
53	COc1cc(=O)n(-c2ccccc2C)nc1C(=O)NCc1ccc(Cl)cc1	0%	26%
54	CC(C)NC(=O)Cn1ncn2c(cc3cc(F)ccc32)c1=O	-12%	-8%
55	CCN1CC(CN(C)C(=O)c2nn(Cc3ccccc3)c(=O)c3ccccc23)Oc2ccccc21 (stereo unspecified)	5%	115%[activator]
56	Cc1nn(CC(=O)c2cc(C)n(C(C)C)c2C)c(=O)c(C#N)c1C	18%	-6%
57	Cc1ccc(NC(=O)CN2C(=O)CN=C(c3ccccc3)c3ccccc32)cc1Cl	-11%	104%[activator]
58	CCOC(=O)c1ccc(NC(=O)c2ccc3c(c2)NC(=O)c2ccccc2S3)cc1	?	?
59	COc1ccc(/C=C2\Oc3cc(OS(=O)(=O)c4ccc(C)cc4)ccc3C2=O)cc1OC	7%	11%
60	Cn1c(C(=O)Nc2ccc(C(N)=O)cc2)cc2ccccc21	213%[activator]	6%

Next part
nr	Structure	2A firefly	2A Renilla
61	COc1ccc(CNC(=O)CCCN2C(=O)CCn3nc(-c4cn(C)c5ccccc45)cc32)cc1	-22%	-23%
62	Cc1ccc(/C=C/S(=O)(=O)NCC(=O)OCCO)cc1	18%	-4%
63	CCC1CCc2c(sc(NC(=O)C(c3ccccc3)c3ccccc3)c2C#N)C1 (stereo unspecified)	-4%	-3%
64	O=C(CCC1CCCC1)Nc1ccc2c(c1)-c1ccccc1C2	0%	9%
65	Nc1ccccc1C(=O)NCC(F)(F)F	7%	11%
66	Cc1nc(-c2ccccc2)c(-c2ccccc2)s1	18%	5%
67	O=C(O)C/C(=C/c1ccc(OC(F)F)cc1)c1nc2ccccc2s1	24%	-11%[1.06 µM]
68	N#CC1=C(N)Oc2nc[nH]c(=O)c2C1c1ccc2c(c1)OCO2 (stereo unspecified)	3%	-6%
69	O=C(Nc1ccc(F)cc1F)c1ccc(S(=O)(=O)C2CCS(=O)(=O)C2)cc1 (stereo unspecified)	1%	-10%
70	CCCN1C[C@H](CSC)C[C@@H]2c3cccc4[nH]cc(c34)C[C@H]21	-24%	-15%
71	OCCN1CCN(c2cc(-c3nc4ccccc4s3)c3ccccc3n2)CC1	14%	-13%
72	O=C(NCC(c1ccccc1)c1ccccc1)c1nn(-c2ccccc2F)nc1CO	?	?
73	COc1ccc(Cl)cc1CNC(=O)c1scnc1C	10%	19%
74	O=C(/C=C/c1cccs1)N1CCC(Cc2ccccc2)CC1	176%[activator]	-6%
75	CC1=C(C(=O)Nc2cccc(Cl)c2)C2(CCCCCC2)OC1=O	-11%	-3%
76	Cc1ccc(CNC(=O)NCc2noc3ccc(C)cc23)cc1	-2%	53%[activator]
77	Cc1c(NS(C)(=O)=O)cccc1-c1nc2ccccc2s1	-8%	?
78	COc1cccc(C(=O)Nc2cccc(C(=O)OCc3cc(=O)n4nc(C5CC5)sc4n3)c2)c1	-3%	-9%
79	Cc1ccc(NC(=O)CN2C(=O)COc3ccc(S(=O)(=O)N4CCCCCC4)cc32)cc1C	-13%	0%
80	CC(Nc1oc(Cc2cccc3ccccc23)nc1C#N)c1ccccc1 (stereo unspecified)	-1%	6%
81	CC(=O)c1cccc(/C=C/c2ccccc2)c1	193%[activator]	?
82	CCn1ccc2c(OCC(=O)Nc3ccccc3C(F)(F)F)cccc2c1=O	?	?
83	COc1ccc(NC(=O)c2cnn(-c3ccc(C)cc3)c2-n2cccc2)cc1OC	4%	2%
84	CCOc1ccc(OCC)c(Nc2nc3ccccc3n3nnnc23)c1	18%	-5%
85	N#CCOc1ccc(NC(=O)c2cc(=O)[nH]c3ccccc23)cc1	-9%	-3%
86	CCc1ccc(O)c(C(=O)c2cnc3cc(-c4ccc(C)cc4)nn3c2)c1	0%	3%
87	Cc1cc(C)c(Sc2ccccc2C(=O)O)c(C)c1	11%	-4%
88	Cc1ccc(CN(CCN(C)C)C(=O)c2cccc(C#N)c2)o1	131%[activator]	-4%
89	CC(=O)Nc1cccc(C(C)NC(=O)Nc2ccc(Cl)cc2Cl)c1 (stereo unspecified)	13%	16%
90	O=C(COc1ccccc1)N(Cc1cccnc1)c1nc2ccc(F)cc2s1	70%[activator]	18%

Looked up by compound from the list above, three records:
nr	Structure	2A firefly	2A Renilla
39	COc1cccc(C(=O)Nc2ccc3oc(-c4cccnc4)nc3c2)c1	?	?
10	Cc1ccc2oc(C(=O)Nc3onc4c3CC(C)CC4)cc(=O)c2c1 (stereo unspecified)	63%[activator]	3%
78	COc1cccc(C(=O)Nc2cccc(C(=O)OCc3cc(=O)n4nc(C5CC5)sc4n3)c2)c1	-3%	-9%

(cont.)
nr	Structure	2A firefly	2A Renilla
91	COCCCNC(=O)CSc1nc2ccccc2c(=O)n1Cc1ccco1	-7%	-4%
92	O=C(Nc1ccc(Cc2ccncc2)cc1)Nc1ccc(Cl)c(Cl)c1	?	?
93	CN(CCCNC(=O)c1ccccc1)CC(F)(F)F	0%	0%
94	Cc1cccc(NC(=O)c2ccc[n+]([O-])c2)c1	?	0%
95	COc1ccccc1CNC(=O)CCCN1C(=O)CCn2nc(-c3cn(C)c4ccccc34)cc21	-24%	7%
96	C/C(=N\NC(=O)c1ccccc1C)c1ccc(C)cc1	211%[activator]	38%
97	Cc1ccc(-c2nsc(NC(=O)c3oc4ccc(Cl)cc4c3C)n2)s1	13%	-10%
98	Cc1ccc(NC(=O)CCS(=O)(=O)c2ccc(Br)cc2)c(C)c1	-6%	25%
99	Cc1oc(-c2cccs2)nc1CC(=O)N(Cc1ccc2c(c1)OCO2)C1CCCC1	?	17%
100	CCN(CCCNC(=O)c1cc(-c2cccnc2)nc2ccccc12)c1cccc(C)c1	-3%	2%
101	CCOc1nc2ccccc2nc1N1CCC(C(=O)NCc2ccccc2Cl)CC1	-3%	-8%
102	Cc1ccc(C(=O)/C=C/c2ccc(Br)cc2F)o1	30%[activator]	-6%
103	CCOC(=O)c1cnc2ccc(Cl)cc2c1Nc1ccc(OCC)cc1	-13%	-11%
104	COc1ccc(CNC(=O)c2ccc3c(c2)NC(=O)CCS3)cn1	16%	-8%[1.06 µM]
105	S=C(NCc1ccccc1)N/N=C/c1ccc(OCCOc2ccc(Br)cc2)cc1	39%[activator]	10%
106	COc1ccc(CCNC(=O)CSc2nc(-c3ccccc3C)nc3cc(=O)[nH]n23)cc1OC	42%[activator]	50%[activator]
107	Cc1ccc(F)cc1NC(=O)Cn1cnc2c1c(=O)n(C)c(=O)n2C	13%	5%
108	CCOC(=O)c1c(S(=O)(=O)Nc2cc(OC)ccc2OC)c(C)n(C)c1C	15%	187%[activator]
109	COc1cc2ccccc2cc1C(=O)Nc1ccc2oc(-c3cccc(Cl)c3Cl)nc2c1	34%[activator]	-8%
110	N#CC1=C(SCc2ccc(C#N)cc2)NC(=O)C(C#N)C12CCCCC2 (stereo unspecified)	-2%	11%
111	O=S(=O)(c1cccnc1)N1CCn2cccc2C1c1ccccc1F (stereo unspecified)	13%	21%
112	COc1ccc(OC)c(CNC(=O)c2c(C)oc3ncn(CC(C)C)c(=O)c23)c1	-5%	-1%
113	O=C(CCN1CCC(c2ccccc2)C1)c1ccccc1 (stereo unspecified)	0%	0%
114	COc1ccc(N2C(=O)CCSC23C(=O)N(Cc2ccc(F)cc2)c2ccccc23)cc1 (stereo unspecified)	-10%	106%[activator]

Source: PubChem (National Center for Advancing Translational Sciences (NCATS))

Only part of the results is shown, so the mix of outcomes need not match the whole.
